T cruzi inh: blocks replication of Trypanosoma cruzi. T. cruzi beta-gal in NIH3T3, luminescence, 90 h. inhibition, % (no concentration beside the values). actives 1.4% (n = 300,000). AID 1885;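 active = mean inhibition across valid replicates above about 55%, limit read from the data; inconclusive = mean below that limit but half or more replicates reach it; inactive = mean below it, under half of replicates reach it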;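 note: signal also drops with host cell toxicity which is not excluded here; 0% = plate median of DMSO wells and 100% = zero luminescence signal; higher percent means less beta-gal luminescence so fewer parasites; stock transfer was 50 nL into about 50 µL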
UCH37 inh: blocks the human deubiquitinase UCH37; actives 0.33% (n = 330,000); purified proteasome/UCH37, Ub-AMC cleavage fluorescence; inhibition, % (test concentration not listed); Q9Y5K5;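 active = mean of two replicates above 20%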;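 note: 0% = compound-free wells with enzyme and 100% = wells lacking proteasome; stock transfer was 100 nL into about 20 µL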
Target sequence (Q9Y5K5 whole entry, looked up): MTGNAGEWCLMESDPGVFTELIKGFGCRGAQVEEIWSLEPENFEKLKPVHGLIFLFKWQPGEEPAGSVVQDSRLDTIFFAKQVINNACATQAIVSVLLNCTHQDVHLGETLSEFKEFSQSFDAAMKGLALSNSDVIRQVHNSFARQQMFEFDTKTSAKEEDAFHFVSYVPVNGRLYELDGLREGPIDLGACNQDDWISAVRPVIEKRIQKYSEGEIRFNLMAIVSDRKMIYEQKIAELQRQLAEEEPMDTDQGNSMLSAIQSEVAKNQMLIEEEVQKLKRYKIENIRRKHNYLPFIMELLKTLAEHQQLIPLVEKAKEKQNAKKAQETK
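Test system – human UCH37 enzyme supplied as purified proteasome complex · Incubation – 30 min preincubation with enzyme, 25 min cleavage at room temperature · Detection – AMC fluorescence from Ub-AMC cleavage, excitation 355 nm, emission 460 nm · Benchmarks – no-proteasome wells (full inhibition) and compound-free wells (no inhibition)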
LANA-H2B inh: blocks KSHV LANA binding to histone H2A/H2B | Q9QR71 | cell-free LANA-H2A/H2B peptide, fluorescence polarization | inhibition, % (concentration not given with the values) | actives 0.6% (n = 320,000) | AID 2629; in the data active = inhibition mostly above about 10%, no sharp cut-off; inactive = mostly below about 6.7%;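 note: stock transfer was 7.5 nL into about 10 µL; 0% = median of vehicle wells and 100% = median of positive control wells; one replicate is shown; the record names a cut of 25% in any replicate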
B2AR ag: human beta-2 adrenergic receptor agonism by FAP; P07550; Am2.2-beta2AR cells, FAP receptor internalization, flow cytometry; reference of the scale not given here; response, % (test concentration not listed); actives 0.43% (n = 340,000);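 active = response above a set limit, near 3 SD of response in nonfluorescent compounds, cut at about 42% in these data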;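 note: stock transfer was 100 nL into about 11 µL; a reference agonist was the positive control; negative values mostly stem from fluorescent compounds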
Target sequence (P07550 whole entry, looked up): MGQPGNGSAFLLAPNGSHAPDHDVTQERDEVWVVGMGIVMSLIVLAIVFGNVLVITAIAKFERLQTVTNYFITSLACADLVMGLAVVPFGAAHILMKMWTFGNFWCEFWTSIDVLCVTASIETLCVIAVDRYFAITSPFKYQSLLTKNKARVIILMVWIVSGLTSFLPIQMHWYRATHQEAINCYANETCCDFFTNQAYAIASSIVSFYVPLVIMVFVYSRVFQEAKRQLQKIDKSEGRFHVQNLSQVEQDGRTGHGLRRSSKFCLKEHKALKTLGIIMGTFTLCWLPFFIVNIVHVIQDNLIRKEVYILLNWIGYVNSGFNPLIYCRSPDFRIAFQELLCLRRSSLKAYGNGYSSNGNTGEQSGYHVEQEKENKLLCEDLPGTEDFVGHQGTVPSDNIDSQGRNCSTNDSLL
Beta cell apopt: blocks beta cell apoptosis | INS-1E cytokine-induced death, ATP luminescence, 48 h; percent of positive-control rescue, neutral wells zero | protection from apoptosis, % (concentration not given with the values) | actives 0.8% (n = 300,000);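 active = all replicates at 75% or more, or half of them and the mean; inconclusive = half reach 75% but not the mean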;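 note: 0% = cytokine-treated negative control wells and 100% = positive control rescue; higher means more ATP so stronger rescue from cytokine killing; wells of about 40 µL received 100 nL stock; the first replicate is given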
Calb FLC: C. albicans growth modulation with fluconazole | growth inhibition, % (no concentration beside the values) | AID 1979 | C. albicans CaCi-2 (fluconazole-resistant clinical isolate) + fluconazole, Alamar Blue growth, 48 h | actives 0.57% (n = 300,000);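 active = most replicates above 75%; inconclusive = exactly half above 75%; inactive = most below 75%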;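 note: all wells also contain fluconazole at 8 µg/ml as a sub-toxic cotreatment; 0% = median of DMSO wells and 100% = median of geldanamycin control wells; wells of about 8 µL received 7.5 nL stock; the first replicate is given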
RanGTP-Impb inh: inhibitors of RanGTP-importin-beta interaction, primary screen, biochemical, FRET, CFP-Ran, YFP-importin-beta, homogeneous; cell-free CFP-Ran/YFP-importin-beta FRET ratio; inhibition, % (test concentration not listed); actives 1.1% (n = 300,000); AID 2216;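 active = most replicates above 15%; inconclusive = exactly half above 15%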;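 note: 0% = DMSO wells and 100% = Ran loaded with GDP instead of GTP; wells of about 40 µL received 100 nL stock; the first replicate is given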
A1 inh: inhibitors of the anti-apoptotic protein A1, read as caspase activation. MEF A1-2A-BIM cells, Caspase-Glo 3/7 luminescence, 3 h; percent of clofoctol response, vehicle zero. caspase activation, % (no concentration beside the values). actives 0.066% (n = 330,000). AID 2462;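 active = over half of replicate activation scores above 10%, or exactly half above 10 with the replicate mean above 10; inconclusive = replicate mean below 10 yet half the replicates above 10; inactive = over half of replicates below 10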;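 note: wells of about 30 µL received 50 nL stock; many hits fall short of the cut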
The depositor's hits bear a star; ? = inconclusive; / = no result given. Random draw from the library; about 4.3% have a hit in one of these screens.

SMILES | T cruzi inh | UCH37 inh | LANA-H2B inh | B2AR ag | Beta cell apopt | Calb FLC | RanGTP-Impb inh | A1 inh
COc1ccc(NC(=O)NCCCCc2ccccc2)cc1OC | 2 | 0.0 | -4.3 | 1 | 0 | 2 | ? | 0.5
CCN(CC(=O)Nc1cc(Cl)ccc1C)C(=O)CCOc1ccc(C)cc1 | 6 | 5.0 | -2.2 | 1 | -9 | -6 | / | 0.2
Cc1cccc(Nc2cc(C)c3c(O)cccc3n2)c1C | 46 | / | -7.6 | 5 | 38 | ? | 1.3 | -0.3
O=C(CCCN1C(=O)c2cccnc2Oc2ccc(Cl)cc21)N1CCCCC1 | 3 | 2.5 | 1.6 | -4 | -3 | -2 | 3.6 | -0.5
NC(=O)c1c(NC(=O)c2ccc(N3C(=O)CCC3=O)cc2)sc2c1CCCC2 | / | 6.2 | -2.9 | 9 | -1 | / | / | -0.8
CCN=C(Nc1ccc2c(c1)OCO2)SC1CC(=O)N(c2ccccc2F)C1=O (stereo unspecified) | -4 | 1.3 | 2.6 | 7 | 1 | ? | 0.2 | -0.3
CCCc1n[nH]c(=O)c2c1nnn2Cc1ccccc1F | -8 | 1.2 | -2.6 | -3 | 4 | 9 | 3.2 | -0.9
Cc1ccc(S(=O)(=O)N2CCOCC2)cc1NC(=O)c1cc([N+](=O)[O-])ccc1N1CCOCC1 | 15 | 9.3 | 0.0 | 3 | 0 | -7 | -3.1 | 0.8
Cc1ccccc1C1C(C#N)=C2N=C(N)c3c(sc4c3CCCCC4)N2C2=C1C(=O)CC(C)(C)C2 (stereo unspecified) | 58* | 4.8 | -0.1 | -23 | -4 | -10 | -2.4 | -0.3
O=C1C=C(c2cccc(Cl)c2)C[C@@H](c2ccc(F)cc2)C1 | / | 1.6 | -1.0 | -8 | 3 | / | / | 2.5

Some of these compounds in order of their number in B2AR ag, highest first.
SMILES	B2AR ag
Cc1cccc(Nc2cc(C)c3c(O)cccc3n2)c1C	5
Cc1ccc(S(=O)(=O)N2CCOCC2)cc1NC(=O)c1cc([N+](=O)[O-])ccc1N1CCOCC1	3
CCCc1n[nH]c(=O)c2c1nnn2Cc1ccccc1F	-3

Other results follow:
SMILES | T cruzi inh | UCH37 inh | LANA-H2B inh | B2AR ag | Beta cell apopt | Calb FLC | RanGTP-Impb inh | A1 inh
Cc1ccc(C(=O)C2=C(O)C(=O)N(c3ncccn3)C2c2ccc(Cl)cc2)o1 (stereo unspecified) | -12 | 6.5 | -1.1 | 4 | -15 | -5 | -0.2 | 0.0
CCCCNc1cc(F)nc(N)n1 | -3 | -0.5 | -1.4 | -6 | -6 | 5 | 5.0 | -0.6
Cc1cc(C(=O)NCc2ccc(Cl)cc2)n(-c2ccccc2)n1 | -5 | 0.5 | 3.8 | -2 | -1 | -4 | 0.0 | 0.0
COc1ccc(C)cc1S(=O)(=O)Nc1cccc(Cl)c1Cl | 9 | 1.2 | -1.1 | -1 | -3 | -15 | -5.2 | -0.3
CC(=O)N(c1ccc(N(C(C)=O)S(=O)(=O)c2ccccc2)cc1)S(=O)(=O)c1ccccc1 | -3 | 5.8 | -1.4 | 12 | 3 | 17 | 0.0 | 0.4
Cc1cc(C(=O)COC(=O)CNC(=O)c2ccc(F)cc2)c(C)n1Cc1ccco1 | -3 | 3.1 | -3.3 | 3 | 2 | -4 | 2.0 | 0.1
O=c1[nH]n(-c2ccc(F)cc2)c2ncccc12 | -19 | 1.4 | 2.3 | 0 | / | ? | 0.4 | 0.2
CCc1cc(C(=O)Nc2ncccc2O)sc1C | -9 | 6.7 | -1.0 | 4 | 8 | 2 | -0.5 | 0.1
NC(=O)C1CCN(c2oc(-c3cccs3)nc2S(=O)(=O)c2ccc(Br)cc2)CC1 | / | 3.4 | -2.7 | -17 | -14 | / | / | -0.8
CC1CCN(c2ccc(N3C(=O)C4CCCCC4C3=O)cc2[N+](=O)[O-])CC1 (stereo unspecified) | -9 | 5.9 | 1.6 | 3 | 3 | 1 | -1.8 | 0.1
Cc1nc2ccc(Nc3ccncc3)cc2s1 | 8 | 4.7 | 1.5 | -2 | 6 | 8 | 0.1 | 1.0
Cc1cccc(NC(=O)CCCN2C(=O)C3CC=CCC3C2=O)c1 (stereo unspecified) | 2 | 0.0 | -2.5 | 6 | -4 | -4 | -0.6 | 0.5
Cc1nn(Cc2ccccc2)c(C)c1C(=O)OCC(=O)c1cc(C)n(CC(F)(F)F)c1C | 34 | -1.0 | 1.6 | -6 | 9 | -13 | ? | -0.8
C=CCN(CC=C)C(=O)COC(=O)c1n[nH]c2ccccc12 | -5 | 3.5 | 2.1 | -9 | -4 | 0 | ? | 0.1
O=C(C1CCCO1)N1CCN(S(=O)(=O)c2ccccc2)CC1 (stereo unspecified) | -10 | 4.0 | -4.0 | -2 | -2 | -16 | 1.2 | 1.1
O=C(C[C@H]1C/C=C\C[C@H](Cc2ccc(F)cc2)C(=O)O[C@@H](c2ccccc2)CNC1=O)N[C@@H](CO)Cc1ccccc1 | / | 2.8 | 1.7 | 1 | 7 | / | / | -1.1
CC(NC(=O)c1ccco1)C(c1cccs1)N1CCN(c2ccc(F)cc2)CC1 (stereo unspecified) | -2 | 2.3 | 3.2 | -1 | 8 | 15 | -4.3 | 0.3
CCCCc1cc(=O)oc2cc(OCC(=O)N3CCc4ccccc43)ccc12 | 9 | -40 | 0.4 | 5 | -3 | 4 | -5.1 | 1.2
O=c1nc(-c2ccccc2)c2cc(Cl)ccc2[nH]1 | 4 | -125 | -0.2 | -13 | 9 | 6 | -2.5 | 0.2
Cc1ccc(C(=O)O)cc1NC(=O)CN1C(=O)C2C3c4ccccc4C(Br)(c4ccccc43)C2C1=O (stereo unspecified) | 1 | 3.7 | 3.8 | -2 | -2 | -8 | 0.8 | 0.1
CC(C)(C)C1=Nn2c(nnc2-c2ccccn2)SC1 | -9 | 4.8 | 0.0 | -3 | -3 | -11 | -4.1 | 1.2
CCOc1ccc(NCc2nc3ccccc3n2CCOc2ccccc2)cc1 | 25 | 6.3 | / | 1 | -5 | -3 | 6.2 | -3.3
COc1cccc(CC(=O)OCC(=O)NC(Cc2ccccc2)C(C)=O)c1 (stereo unspecified) | -5 | 1.7 | 6.6 | 9 | -8 | -7 | / | 0.7
Cc1cc(C)c(Cn2cnc(-c3ccc([N+](=O)[O-])cc3)c2)c(C)c1 | 24 | 2.9 | -1.2 | 8 | 4 | -13 | 0.7 | 1.1
COc1ccc(NC(=O)c2ccco2)c2ccccc12 | -2 | 4.5 | -0.5 | -4 | -3 | 8 | -3.1 | 1.6
Cc1ccc(C2=NN(CC(=O)NCc3ccccn3)C(=O)CC2)cc1 | 0 | -1.9 | 0.0 | 2 | -3 | 5 | 0.1 | 0.4
Clc1nssc1=Nc1nncs1 | / | 2.2 | -4.9 | 1 | -4 | / | / | 1.9
CSc1n[nH]c2nc3c(c(=O)n12)C1(CCCCC1)Cc1ccccc1-3 | 5 | -37 | -0.2 | 4 | -3 | 4 | 13 | 0.4
CSc1cccc(NC(=O)CN(C2CCCCC2)S(C)(=O)=O)c1 | 8 | 1.2 | 3.6 | -4 | 7 | 8 | -0.1 | 1.0
COc1ccc(/C=C2\SC(=S)N(CCC(=O)Nc3ccccn3)C2=O)cc1OC | 10 | 0.6 | 4.7 | 5 | 3 | 22 | 5.3 | -0.3
O=C(O)CNC(=O)c1ccc(S(=O)(=O)N2CCOCC2)cc1 | -7 | -0.3 | -2.6 | -7 | 1 | 11 | 3.2 | 0.1
COc1cc(OC)cc(C(=O)NC(=S)NNC(=O)Cc2cccs2)c1 | -24 | 0.6 | 6.8 | -4 | -9 | 32 | 1.3 | 0.0
Cc1cc(C)c2c(c1)/C(=N/NC(=O)c1cc(C)oc1C)CCC2 | 6 | / | -2.4 | 11 | 1 | -4 | -1.9 | 0.4
O=C(Nc1cc(Cl)ccc1-n1cncn1)C1CC1 | -4 | 5.2 | -0.4 | 9 | -6 | -10 | -0.2 | 0.6
CCn1c(N2CCN(S(=O)(=O)c3ccccc3)CC2)nc2ccccc21 | 7 | 1.0 | -5.9 | -11 | 3 | -5 | ? | -0.4
COc1ccc(-c2nc(SCc3ccccc3)n(S(C)(=O)=O)n2)cc1 | 15 | 2.5 | 1.1 | -2 | / | 10 | -0.4 | -0.5
CC(=O)N1CCN(CC(=O)Nc2cc(F)ccc2C)CC1 | -3 | 3.0 | 3.1 | 11 | / | -7 | 6.2 | -0.2
Cc1nn(CC(=O)NCCN2CCCCC2C)c(=O)c2cc(-c3ccccc3)nn12 (stereo unspecified) | 25 | 4.7 | -6.9 | -4 | -4 | 5 | 1.7 | 0.2
CCc1c(C)nc(Nc2nc(C)c3ccc(OC)cc3n2)[nH]c1=O | 5 | 7.2 | -1.2 | -17 | 18 | 3 | -3.0 | -0.4
O=C(/C=C/c1ccccc1)NC(=S)Nc1ccc(CN2CCOCC2)cc1 | -8 | 6.2 | -0.1 | -47 | -3 | 1 | 3.5 | 0.9
Clc1ccccc1CO/N=C1\CCCc2nonc21 | -2 | / | 1.0 | 4 | -1 | -29 | 3.4 | -0.4
COc1cc(Cl)ccc1OCc1cc(C(=O)N(C)C2CC(C)(C)NC(C)(C)C2)no1 | 23 | 0.0 | 3.1 | 3 | -3 | -5 | 6.8 | 0.3
O=C(O)C1(NS(=O)(=O)c2ccc(Cl)cc2)CCCCC1 | -26 | 4.6 | 12 | -7 | -3 | ? | -2.1 | 0.2
CCc1ccc(NC(=O)[C@H](NC(=O)[C@@H]2Cc3ccccc3CN2)c2ccccc2)cc1 | 1 | 2.7 | 0.6 | 34 | 0 | 7 | 0.9 | -1.2
CCn1c(O)c(C2=c3ccccc3=NC2=O)c2cc(Br)ccc21 | 61* | -1.4 | 4.4 | / | -11 | 0 | -2.1 | 2.3
CCn1cc(C(=O)O)c(=O)c2cc(Br)ccc21 | -3 | 2.2 | -0.9 | 3 | -6 | -9 | -1.8 | -0.4
CCOc1ccc(NC(=S)N2CCCN(Cc3cc(C)ccc3C)C2)cc1 | ? | 3.2 | 6.5 | -15 | 12 | -5 | -2.8 | 0.6
CCCn1cc(CN2CCCC(CNC(=O)c3ccc(F)cc3)C2)c(C)n1 (stereo unspecified) | 49 | 2.6 | -0.1 | -6 | -10 | 0 | 6.3 | 1.1
CCC(C)(C)NC(=O)CN(C(=O)CCC(=O)Nc1nccs1)c1ccccc1C | 3 | 0.0 | 3.5 | -1 | -1 | 2 | 7.0 | 1.3
COc1ccc(CCNc2nc(C)nc3c2oc2ccccc23)cc1OC | 9 | -1.4 | -4.9 | 22 | 70 | -1 | 6.9 | -0.2
O=C(CCCc1nc(-c2ccccc2)no1)NC1CCCC1 | 3 | 5.0 | -6.9 | -7 | 3 | -4 | 2.3 | 0.4
CCCCn1c(SC(C)C(=O)NCC2CCCO2)nc2cc(C(=O)OC)ccc2c1=O (stereo unspecified) | 21 | -8.8 | 0.5 | 11 | 0 | -4 | -1.8 | 0.0
Cc1ccc(NS(=O)(=O)c2cccc(C(=O)NCC3CCCO3)c2)cc1 (stereo unspecified) | 4 | 1.6 | 4.6 | 5 | -4 | 0 | -0.6 | 0.0

Assay outcomes: PubChem BioAssay, several laboratories
